Bioassay records (PubChem BioAssay)
Calb biofilm kill = mixtures killing C. albicans biofilm. C. albicans biofilm persisters + clotrimazole, fluorescence viability; primary screen in compound mixtures of four per well. inhibition, % at 7.6 µM. 0.02% of 120,000 active;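 active = inhibition above 30.3% in the primary screen of four-compound pools, then above 30% when the compound was retested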;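 note: compounds exposed to preformed 24 h biofilms for 48 h; the number belongs to the whole pool; some results filed as inactive read as strong as hits; inactives centre near 12; 0% = biofilm with clotrimazole alone and 100% = kill control; retested singly at about 60 µM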
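System: C. albicans CAF4-2 wild-type biofilms; Medium: RPMI/MOPS medium, pH 7.0; Reagent: Clotrimazole, 50 µg/mL; Times: biofilm formation 24 h, compound exposure 48 h, 37 °C; Detection: 2-h Alamar Blue fluorescence, 535/590 nm excitation/emission; Evaluation: percent inhibition of biofilm viability.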
* marks the source's active call; other numbers are inactive results. Some of the compounds tested, so the mix of outcomes need not match the whole.

mol	Calb biofilm kill
O=C(NNc1ccccc1Br)C(O)(c1cccc(C(F)(F)F)c1)c1cccc(C(F)(F)F)c1	16
Cc1cc(=O)[nH]c(NCCO)n1	3
CCCNc1ccc(C(=O)OCC)cc1[N+](=O)[O-]	3
CSc1sc(C)cc1/C=N/O	0
COc1ccc(C)cc1NC(=O)C(Sc1nnc(-c2cccs2)o1)c1ccccc1 (configuration not stated)	12
Nc1ccc2nc(CCCO)[nH]c2c1	5
Cc1cc(-c2nnc(CCC(=O)N(CC3CC3)CC3CCCO3)o2)no1 (configuration not stated)	7
Nc1nonc1-c1nc2ccccc2n1CC(=O)N/N=C/c1ccc(-c2cccc(C(=O)O)c2)o1	10
CN(c1c[nH]c(=O)[nH]c1=O)C1CCCCC1	14
O=C(Oc1cccc2cccnc12)c1cccc(N2C(=O)C3C4CCC(C4)C3C2=O)c1 (configuration not stated)	8
COc1ccc(/C=N/NC(=O)c2cccnc2)cc1CN1CCc2cc(OC)c(OC)cc2C1C (configuration not stated)	10
CC1(C)COC2(OC1)C(=O)Nc1ccccc12	13
Cc1cccc(N(C(=O)c2ccc(CN3CCOCC3)o2)C(C(=O)NC2CCCCC2)c2ccc(F)cc2)c1 (configuration not stated)	3
C=CCNC(=S)N1CCN(CCN=Cc2c(C)[nH]n(-c3ccc([N+](=O)[O-])cc3)c2=O)CC1	26
COc1ccccc1C(=O)NC(=S)Nc1ccc(N2CCCC2)cc1	21
COC(=O)CSc1nc(NC(C)(C)C)nc(N(C)C)n1	16
Cc1cccc(Nc2ncnc3c2cnn3C)c1	17
Cc1ccc(OCC(=O)NCCC2=CCCCC2)cc1	6
CC1(C)CC(=O)/C(=C(/O)Cc2ccccc2)C(=NCCc2ccccc2)C1	8
CC(C)N1CC2=C(C1=O)C(c1ccc(O)cc1)NC(=O)N2C (configuration not stated)	14

For reference, part of the list above:
mol	Calb biofilm kill
COc1ccc(C)cc1NC(=O)C(Sc1nnc(-c2cccs2)o1)c1ccccc1 (configuration not stated)	12
Nc1ccc2nc(CCCO)[nH]c2c1	5
Cc1cc(-c2nnc(CCC(=O)N(CC3CC3)CC3CCCO3)o2)no1 (configuration not stated)	7
Nc1nonc1-c1nc2ccccc2n1CC(=O)N/N=C/c1ccc(-c2cccc(C(=O)O)c2)o1	10
CN(c1c[nH]c(=O)[nH]c1=O)C1CCCCC1	14
O=C(Oc1cccc2cccnc12)c1cccc(N2C(=O)C3C4CCC(C4)C3C2=O)c1 (configuration not stated)	8
COc1ccc(/C=N/NC(=O)c2cccnc2)cc1CN1CCc2cc(OC)c(OC)cc2C1C (configuration not stated)	10
CC1(C)COC2(OC1)C(=O)Nc1ccccc12	13
Cc1cccc(N(C(=O)c2ccc(CN3CCOCC3)o2)C(C(=O)NC2CCCCC2)c2ccc(F)cc2)c1 (configuration not stated)	3
C=CCNC(=S)N1CCN(CCN=Cc2c(C)[nH]n(-c3ccc([N+](=O)[O-])cc3)c2=O)CC1	26
COc1ccccc1C(=O)NC(=S)Nc1ccc(N2CCCC2)cc1	21
COC(=O)CSc1nc(NC(C)(C)C)nc(N(C)C)n1	16
Cc1cccc(Nc2ncnc3c2cnn3C)c1	17
Cc1ccc(OCC(=O)NCCC2=CCCCC2)cc1	6
CC1(C)CC(=O)/C(=C(/O)Cc2ccccc2)C(=NCCc2ccccc2)C1	8
CC(C)N1CC2=C(C1=O)C(c1ccc(O)cc1)NC(=O)N2C (configuration not stated)	14

The list continues:
mol	Calb biofilm kill
Cc1ccc(S(=O)(=O)c2c(C)cc(C)nc2N2CCCC2)cc1	12
CCCC(c1nnnn1Cc1ccc2c(c1)OCO2)N1CCC(C(N)=O)CC1 (configuration not stated)	16
Cc1cc(C(F)(F)F)cc(NNC(=O)NC(=O)c2c(F)cccc2Cl)n1	28
Cc1n(CC(O)COC2CCCCC2)c2ccccc2[n+]1C (configuration not stated)	5
COc1ccc(-c2cc3nc(C)c(CCC(=O)N4CCN(c5ccccn5)CC4)c(C)n3n2)c(OC)c1	14
COc1cccc(/C=C/C(=O)OCC(=O)Nc2ccc(Cl)c(S(=O)(=O)N(C)C)c2)c1OC	6
N#Cc1c(N2C(=O)Nc3ccccc3N2O)sc2c1CCCC2	16
CC(C)(C)NC(=O)c1oc2ccccc2c1COc1ccccc1	21
CC(C)(C)NC(=O)C(c1ccncc1)N(C(=O)C1CSC(=O)C1)c1ccccc1 (configuration not stated)	24
COc1ccc(NCC(=O)N/N=C/C2CCCCC2)cc1	16
CCN(CC)S(=O)(=O)c1cc(OC)c(C)cc1C	-6
CC(C)Cn1c(N)c(C(=O)COC(=O)CCc2nc3ccccc3s2)c(=O)n(C)c1=O	9
Cc1c(N=Nc2ccc(O)cc2)c(=O)n(-c2ccccc2)n1C	8
COc1ccc(C(C)=O)cc1Cn1nc(C)c([N+](=O)[O-])c1C	0
CNc1nc(-c2ccc3c(c2)CCN3C(=O)c2ccccc2F)cs1	35
CCOc1ccc(N(Cc2ccccc2F)C2=NC3CS(=O)(=O)CC3S2)cc1 (configuration not stated)	8
CCc1ccccc1NC(=O)CC1CS(=O)(=O)CC1CC(=O)Nc1ccccc1CC (configuration not stated)	19
COc1ccc(/C=N/Nc2ncnc(Cl)c2N)cc1OC	7
Cc1[nH][nH]c(=O)c1C=NCc1cccc(C(F)(F)F)c1	7
Nc1nc(Sc2c([N+](=O)[O-])cc(C(F)(F)F)cc2[N+](=O)[O-])n[nH]1	13
OCCC1CN(Cc2ccc(Oc3ncccn3)cc2)CCN1C1CCCCC1 (configuration not stated)	23
CCC(C)[C@H](NC(=O)Nc1ccc2c(c1)OCCO2)C(=O)OC (some centres not stated)	17
Cn1cc(CN(CCCN2CCOCC2)C(=S)Nc2cccc(Cl)c2)c2ccccc21	-7
O=C(CS(=O)(=O)c1cn(CC(=O)N2CCOCC2)c2ccccc12)Nc1ccccc1	11
COc1ccc(-n2c(C)cc(C(=O)COC(=O)c3cc(OC)c(OC)cc3NC(=O)c3cccs3)c2C)cc1	14
Cc1ccccc1Oc1cc(NC(=O)CCCn2nc(C)c([N+](=O)[O-])c2C)cc([N+](=O)[O-])c1	14
CCc1c(C)sc2nc3c(C(=O)N4CCOCC4)cc(C(=O)c4cc(F)ccc4O)cn3c(=O)c12	15
Cc1ccc(C(=O)C2CCN(CC(=O)N3CCN(c4ccc(F)cc4)CC3)CC2)cc1	7
COc1ccccc1NC(=O)c1ccc(NS(=O)(=O)c2ccc(F)c(Cl)c2)cc1	19
CN(C)Cc1ccccc1Sc1cccc2ccccc12	14
O=C1CCCc2oc3ccc(O)cc3c21	5
O=C(NCC1CCCO1)C(c1cccs1)N(C(=O)Cn1nnc(-c2cccs2)n1)C1CCCC1 (configuration not stated)	8
CC(C)CCOc1cccc(OCC(=O)O)c1	11
CC(=O)OCC(=O)[C@@]1(O)CC[C@H]2[C@@H]3CCC4=CC(=O)CC[C@]4(C)[C@H]3C(=O)C[C@@]21C	44
O=C(CNS(=O)(=O)c1cccc(Cl)c1)OCc1csc(-c2ccccc2)n1	9
O=C(Nc1ccc(N2CCOCC2)nc1)c1ccccc1Cl	14
Cc1cccn2c(=O)c(/C=C(\C#N)S(=O)(=O)c3ccccc3)c(Oc3ccc(Cl)cc3)nc12	2
C=Cc1ccc2c(c1)N(C)C(=C)S2	16
COc1ccc(C)cc1NC(=O)C(c1ccccc1)N1CCNC(=O)C1 (configuration not stated)	18
CCC(C)(C)C1CCC2(CC1)NC(CO)(CO)CO2 (configuration not stated)	17
Cc1ccc2c(c1)NCC(C(=O)NC1CCC(C)CC1)O2 (configuration not stated)	-1
CCCS(=O)(=O)c1c(S(=O)(=O)CCC)c2cnccn2c1C(=O)c1ccc(OC)cc1	10
COc1ccc(/C=C/C(=O)Nn2cnnc2)cc1	2
O=C(NNc1ccc(-c2csnn2)cc1)c1ccccc1C(F)(F)F	15
Cc1nc(NC(=O)COC(=O)CCc2nc3ccccc3s2)c(Cl)cc1Cl	5
COc1cc(CC(=O)OCC(=O)Nc2ccc(N3CCOCC3)cc2)cc(OC)c1OC	-3
CC(=O)N1CCN(CC(=O)Nc2ccccc2Sc2ccc(Cl)cc2)CC1	8
Cc1ccc(NC(=O)c2ccc(F)cc2)cc1S(=O)(=O)N1CCCCCC1	-4
C/C(=N\NC(=O)c1nn(C)cc1Cl)c1ccncc1	21
COc1cccc(NC(=O)NC2CCCc3ccccc32)c1 (configuration not stated)	-5
COCC(=O)Nc1nc(-c2ccccc2)ns1	13
C=CCn1c(SCC(=O)NNC(=O)Nc2cccc(Cl)c2)nnc1-c1ccccc1	-7
O=C(CSc1nc2[nH]ncc2c(=O)[nH]1)N1CCCC1	10
CCCNC(=O)NNC(=O)c1ccc(F)cc1	12
NC(=O)c1ccc(NC(=O)COC(=O)c2cc(S(=O)(=O)N3CCOCC3)ccc2N2CCCCC2)cc1	16
O=C(c1ccc(Cl)c(S(=O)(=O)N2CCCC2)c1)N1CCN(c2ccc(F)cc2)CC1	-2
COC(=O)c1sc(-c2ccc(Cl)cc2)cc1NC(=O)CSCC(=O)O	30
COc1cc(O)c(C(CCN2CCCC2)c2ccc(N(C)C)cc2)c(OC)c1 (configuration not stated)	13
COc1cccc(CN2CCNC(=O)C2CC(=O)N2CCCCO2)c1OC (configuration not stated)	-10
Nc1nc2ncc(-c3ccsc3)c(N)n2n1	17

More compounds.
mol	Calb biofilm kill
O=C(CCN1C(=O)C2C3CCC(C3)C2C1=O)Nc1ccccc1C(F)(F)F (configuration not stated)	4
CCOC(=O)C1=C(C)NC(C)=C(C(=O)OCC)C1C(=O)OCC(=O)N(CC)C1CCS(=O)(=O)C1 (configuration not stated)	12
Cn1ncc(C(=O)Nc2ccc(OC(F)(F)F)cc2)c1-n1cccc1	11
CNC(=O)N(C1=NCCCCC1)c1ccc(Br)cc1	2
COc1ccc(OCC(O)CNC(=O)c2ccccc2)cc1 (configuration not stated)	10
Cc1ccc(C(=O)COC(=O)c2cc(=O)[nH]c3ccccc23)cc1C	8
N#CCCN(C(=O)COc1ccc(Br)cc1F)c1ccc(F)cc1	13
CCN(CC)C(=O)c1ccc2c(c1[N+](=O)[O-])C(=O)c1ccccc1C2=O	11
CSc1nc(-c2ccccc2)cc(C)c1C#N	5
COc1ccc(NC(=O)C(=O)N/N=C/c2cccnc2)cc1	16
Cc1cccc(OCCOc2ccccc2C=C(C#N)C#N)c1	12
O=C(NCCc1ccc2c(c1)OCCO2)c1ccc([N+](=O)[O-])cc1Cl	7
Cc1cc(C)c[n+](CC(=O)c2ccc(-c3ccccc3)cc2)c1	0
NNC(=O)c1cc(-c2ccc(O)cc2)nc2ccc(Br)cc12	17
N#Cc1ccc(NC(=O)c2cc(-c3cccs3)on2)cc1	1
COCC(=O)N1CCN(c2nc3ccccc3o2)CC1	-3
Cc1cc(C(=O)CN2C(=O)NC3(CCCc4sccc43)C2=O)c(C)n1-c1ccccc1 (configuration not stated)	7
CC(C)Oc1cc(NC(=O)CS(=O)(=O)CC(=O)N(C)C)c(Cl)cc1Cl	15
CCOc1ccc(N2C(=O)CC(SC(=NC)Nc3ccc(F)cc3)C2=O)cc1 (configuration not stated)	13
OCc1ncc(-c2ccccc2)s1	16
O=C(Nc1ccc(Cl)cc1)c1sccc1-n1cccc1	12
Cc1ccc2nc(NC(=O)CSc3nncc(=O)n3N)sc2c1	9
CN(Cc1ccon1)C(=O)CC1C(=O)NCCN1CC(C)(C)C (configuration not stated)	12
On1c(-c2ccccc2Cl)nc2ccccc21	15
O=C(Nc1cccc([N+](=O)[O-])c1)c1ccc(N2CCCC2=O)cc1	10
Cc1ccc(Nc2c(-c3ccco3)nc3nc(C)cc(C)n23)cc1	16
O=c1nccc(Nc2ccccc2)[nH]1	17
CCN(CC)C(=O)C(=O)c1c(-c2ccccc2)[nH]c2ccccc12	25
CC(C)NC(=O)Nc1ccc(Br)cc1Cl	4
CC(C)(C)c1ccc(Oc2ccc(NC(=O)c3ccccc3C(=O)O)cn2)cc1	17
COc1ccc(-n2nc(C(=O)NCC(=O)NCCCN3CCCCCC3)c3ccccc3c2=O)cc1Cl	14
Cc1ccc(C(=O)NC(=S)Nc2cccc(NC(=O)c3ccccc3)c2)cc1[N+](=O)[O-]	10
CCOC(=O)C1=C(CC)Nc2ccccc2N=C1NC(=O)CCNC(C)=O	-4
C=CCNC(=S)N1CCC(C(N)=O)CC1	6
O=C(CCS(=O)(=O)c1ccccc1)Nc1ccc(N2CCOCC2)cc1	-6
O=C1c2ccc(-c3ccc4c(c3)C(=O)N(CCO)C4=O)cc2C(=O)N1CCO	18
Cc1cc2ncc(-c3ccc(Cl)cc3)cn2n1	2
NC1=NC[C@@H](Cc2ccc(O)cc2)N1CCc1cc(C(F)(F)F)cc(C(F)(F)F)c1	17
CCCCc1c(O)c2ccccc2n(CCCC)c1=O	19
[N-]=[N+]=NC1C[C@H](n2ccc(=O)[nH]c2=O)O[C@@H]1CO (some centres not stated)	-4
CCC(=O)N1CCc2cc(OC)c(OC)cc2C1COc1ccc(OC)cc1 (configuration not stated)	9
N=C1SCC(=O)N1c1ncc(Cc2ccc(F)cc2)s1	20
CCOc1ccc(NC(=S)N(CCN2CCOCC2)Cc2cc3cc4c(cc3[nH]c2=O)OCO4)cc1	6

Some values from the results shown:
Under Calb biofilm kill, `Cc1nc(NC(=O)COC(=O)CCc2nc3ccccc3s2)c(Cl)cc1Cl` reads 5
Under Calb biofilm kill, `Cc1cccc(N(C(=O)c2ccc(CN3CCOCC3)o2)C(C(=O)NC2CCCCC2)c2ccc(F)cc2)c1` (configuration not stated) reads 3
